Screens (PubChem)
Lassa entry inh = inhibitors of Lassa virus binding or cell entry | Lassa virus pseudotype entry inhibition, cell reporter; control for the full effect not named in the record | Potency, µM (series often up to 37.9 µM), for the others: at the highest dose activity change, negative = inhibition, most hits filed as inhibitors | actives 1.2% (n = 300,000) | AID 540256; active means well fitted inhibition curve with a large enough effect; inconclusive means small, poorly fitted or top-dose-only effect, or effect the other way; inactive means flat fitted curve, though single readings scatter; tested in HEK293 cells; further: on the % scale 0 is the no-effect control and ±100 the full control effect; nearly all actives have a fitted effect of over 50% in size; luciferase read-out
Cruzain noTriton = inhibitors of Trypanosoma cruzi cruzain without detergent; P25779; purified cruzain, Z-FR-AMC fluorescence, no detergent; Potency, µM, without a hit: max response, negative = inhibition, most hits filed as inhibitors; actives 2.3% (n = 200,000); AID 1476;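 further: plate controls were enzyme without inhibitor for no effect and buffer without enzyme for full effect; nearly all actives have a fitted effect of over 40% in size; top concentration of the series not given in the record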
Target sequence (P25779 123-467 limits assumed): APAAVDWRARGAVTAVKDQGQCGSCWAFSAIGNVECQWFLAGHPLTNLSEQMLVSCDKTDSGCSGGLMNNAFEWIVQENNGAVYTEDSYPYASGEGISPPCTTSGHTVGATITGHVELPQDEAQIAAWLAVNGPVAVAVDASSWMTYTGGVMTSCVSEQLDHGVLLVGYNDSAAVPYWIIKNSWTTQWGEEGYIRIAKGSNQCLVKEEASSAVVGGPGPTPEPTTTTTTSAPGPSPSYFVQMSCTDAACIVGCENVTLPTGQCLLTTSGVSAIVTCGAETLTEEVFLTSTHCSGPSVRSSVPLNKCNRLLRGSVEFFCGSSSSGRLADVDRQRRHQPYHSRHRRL
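Detergent-free condition (0.00005% Triton X-100) in acetate buffer pH 5.5 with DTT. 1.5 nM enzyme and compound were pre-mixed 15 min, then 2 uM Z-FR-AMC substrate added; reaction progress from fluorescence change between first and third reads (60 s).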
MARV entry inh = blocks Marburg virus binding to or entry into cells; Potency, µM (top dose mostly 37.8 µM), inactives show top-dose activity change, negative = inhibition, usual class: inhibitors; Marburg virus pseudotyped entry inhibition, cell reporter; control for the full effect not named in the record; about a third of the inactives were read at about 46 µM; AID 540276; actives 1.8% (n = 300,000); active = well fitted inhibition curve with a large enough effect; inconclusive = small, poorly fitted or top-dose-only effect, or effect the other way; inactive = flat fitted curve, though single readings scatter; tested in HEK293 cells; about a fifth of its hits are not listed in these tables; further: on the % scale 0 is the no-effect control and ±100 the full control effect; luciferase read-out
StopGo reporter = FMDV 2A StopGo reporter, luciferase signal. Potency, µM (titrated, usually from 57.9 µM), without a hit: at the highest dose signal change, negative = less light. actives 1.2% (n = 410,000). human cells with a luciferase reporter of 2A StopGo recoding; control for the full effect not named in the record; active = well fitted falling curve with a large enough effect; inconclusive = small, poorly fitted or top-dose-only effect; inactive = no such curve, though single readings can be large or run the other way; tested in HEK293T cells; further: on the % scale 0 is the no-effect control and ±100 the full control effect; nearly all actives have a fitted effect of over 45% in size; luciferase light after 4 h
SARS PLP yeast = blocks SARS-CoV papain-like protease in a yeast assay. S. cerevisiae expressing SARS-CoV PLpro, growth rescue; control for the full effect not named in the record. Potency, µM (series often up to 32.9 µM), inactives show at the top dose activity, positive = growth rescue. actives 0.19% (n = 330,000). AID 485353; active means well fitted rising curve with a large enough effect; inconclusive means small, poorly fitted or top-dose-only effect; inactive means no such curve, though single readings can be large or run the other way; further: 0% is about no effect; nearly all actives have a fitted effect of over 55% in size; growth read by luminescence after 48 h
RE007 growth inh = less growth of the S. pombe RE007 Vpr strain | Potency, µM (doses to about 92.2 µM), without a hit: top-dose activity change, negative = less growth | AID 651644 | S. pombe RE007 Vpr strain, BacTiter-Glo ATP luminescence, 24 h; control for the full effect not named in the record | actives 0.21% (n = 360,000); active = well fitted falling curve with a large enough effect; inconclusive = small, poorly fitted or top-dose-only effect; inactive = no such curve, though single readings can be large or run the other way;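 further: on the % scale 0 is the no-effect control and ±100 the full control effect; nearly all actives have a fitted effect of over 50% in size; the assay follows cell death caused by Vpr and the record does not say whether a fall means rescue or toxicity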
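Fission yeast strain RE007, carrying one chromosomally integrated HIV-1 vpr copy, was seeded at OD 0.01 in PMG+AL medium with 23 nL pinned compound. After 24 h at 30 °C and 99% humidity, viability was read by BacTiter-Glo luminescence.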
Cruzain inh Det = blocks cruzain activity in presence of Triton detergent. purified cruzain, Z-FR-AMC fluorescence, 0.01% Triton. AID 1478. Potency, µM, for the others: max response, negative = inhibition, actives largely listed as inhibitors. actives 0.43% (n = 200,000). P25779;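 further: plate controls were neutral wells for no effect and buffer without enzyme for full effect; nearly all actives have a fitted effect of over 40% in size; top concentration of the series not given in the record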
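Read-out: AMC fluorescence (360 nm excitation, 450 nm emission), four reads over 2 min, first-to-third difference used. Conditions: cruzain 1.5 nM, Z-FR-AMC 2 uM, pH 5.5 acetate, 5 mM DTT, 0.01% Triton X-100.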
NS1 function inh = influenza NS1 inhibition; S. cerevisiae slowed by influenza A NS1, growth recovery by OD600; Potency, µM (series often up to 46.1 µM), inactives show top-dose activity, positive = more growth; actives 0.4% (n = 270,000); AID 2326; active means well fitted rising curve with a large enough effect; inconclusive means small, poorly fitted or top-dose-only effect; inactive means no such curve, though single readings can be large or run the other way; further: nearly all actives have a fitted effect of over 50% in size
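In this qHTS, NS1 from influenza A is expressed in budding yeast, where it slows growth. Cells are switched from glucose to 2% galactose medium (pH 6.0, -URA), treated with compound, and growth recovery is read at OD600.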
An asterisk follows results filed as active; ? = inconclusive; nt = no result given; & = joins results of further samples; [ ] = dose if it differs, or a comment. Unless noted, the call rests on the fitted dose curve; in most records, active means well fitted curve in the direction sought with a large enough effect; inconclusive means small, poorly fitted or top-dose-only effect, or another doubt; inactive means no such curve, though single readings can be large; an effect the other way counts as inactive or inconclusive. Potency means the concentration at half of the fitted maximal effect. No enrichment for hits (roughly 4.5% active in at least one column).

SMILES | Lassa entry inh | Cruzain noTriton | MARV entry inh | StopGo reporter | SARS PLP yeast | RE007 growth inh | Cruzain inh Det | NS1 function inh
COc1ccc(CC(=O)Nc2ccc(S(=O)(=O)Nc3cc(C)on3)cc2)cc1 | 3.2% | -6.7% | 1.4% | -5.1% | 14.0%[6.58 µM] | 15.6% | 0.7% | 5.6%
CC(C(=O)Nc1cc([N+](=O)[O-])ccc1Cl)N1CCN(c2ccc(O)cc2)CC1 (configuration not stated) | -9.1% | -16.2% | ? | -10.1% | ? | 7.0% | -5.5% | 19.8%
Cc1nnc(SCC(=O)NC2CCCCC2)n1C1CCCCC1 | 4.5% | -0.6% | 27.6% | -3.6% | 8.1% | 8.5% | -0.8% | -3.4%
Cc1cccc(-c2noc(-c3ccccc3C(=O)NCc3ccco3)n2)c1 | -27.8% | nt | 1.5% | 37.9%[activator] | -2.9% | -4.6% | nt | 3.9%
CC1(C)C(c2ccc(Cl)cc2)=[N+]([O-])C2(CCCC/C2=N\O)N1O (configuration not stated) | ? | 1.7% | ? | -7.7% | 11.2% | 11.1% | 0.9% | 11.1%
Cc1cccc(-c2nc(SCc3cc(=O)c4c(C)cc(C)cc4[nH]3)n[nH]2)c1 | -0.8%[46.1 µM] | ? | nt | -17.8% | nt | nt | 4.6% | nt
Cc1ccc(CSc2nnc(-c3ccc4c(c3)OCO4)o2)cc1 | -5.0% | 4.1% | 4.4%[46.1 µM] | 28.3% | -6.5% | -2.2% | 0.6% | -7.1%
Cn1c(=O)cc(Nc2ccc(Cl)cc2)[nH]c1=O | -20.9%[46.1 µM] | nt | -3.2%[46.1 µM] | -14.3% | 1.7% | -2.3% | nt | 1.9%
COc1ccc(OC)c(NC(=O)CCCNC(=O)c2ccc(Cl)cc2)c1 | nt | nt | nt | -16.3% | 0.1% | 2.2% | nt | -0.1%
O=C(CCNS(=O)(=O)c1ccccc1C(F)(F)F)NCCCSc1ccccc1 | -7.4% | nt | -0.3% | 22.8% | -5.0% | 12.6% | nt | -0.8%
Cc1ccc(NC(=O)CCCCCC2NC(=O)NC2C)cc1 (configuration not stated) | 19.1%[14.3 µM] | 2.9% | -13.6% | -1.3% | 1.9% | -19.1% | 0.1% | -1.8%
CCN(CC(=O)Nc1ccc(NC(C)=O)cc1)C(=O)C1CC(=O)N(Cc2ccc(C)cc2)C1 (configuration not stated) | ? | nt | 4.2% | -5.5% | -2.0% | 3.1% | nt | nt
COc1cc(C(=O)O)ccc1OC(C)=O | 0.5% | -0.8% | 2.4% | nt | -4.7% | 3.9% | 2.9% | 4.0%
Cc1cc(N2CC(C(=O)O)CC2=O)ccc1Br (configuration not stated) | -5.4% | 14.4% | -5.6%[46.1 µM] | -18.3% | -3.9% | 33.5% | -0.6% | 0.5%
CCCCn1c(SCC(=O)c2ccccc2)nc2ccsc2c1=O | -18.6% | -4.5% | -43.6% | 0.0% | 17.2% | 3.3% | -10.1% | -0.9%
Cn1/c(=N/N=C/c2ccc(Cl)c([N+](=O)[O-])c2)sc2ccccc21 | ? | 2.2% | 19.2% | 30.2%[activator] | -12.5% | 3.0% | 3.9% | -11.7%
Brc1ccc(-c2noc(COc3ccc4ccccc4c3)n2)o1 | nt | -1.0% | nt | 1.1% | 7.1% | -7.3% | -1.5% | -2.0%
COc1nc(-c2ccccc2)cc(-c2ccc(OC)c(OC)c2)n1 | -19.1% | ? | ? | -22.9% | -17.6% | -19.1% | -23.3% | -4.6%
O=C(O)/C=C/C(=O)Nc1ccc2c(c1)C(=O)c1ccccc1C2=O | nt | nt | nt | 42.1%[activator] | -2.9% | -15.4% | nt | -6.8%
Fc1ccc(C(CNC(=S)NC2CCCCC2)N2CCOCC2)cc1 (configuration not stated) | nt | nt | -0.6%[46.1 µM] | 39.1%[activator] | 0.3% | 4.7% | nt | nt
NS(=O)(=O)c1ccc(CCNC(=O)Cc2ccc(S(=O)(=O)N3CCOCC3)s2)cc1 | -4.6% | nt | 22.8% | -12.9% | -5.9% | 1.7% | nt | nt
CCOC(=O)c1ccc(NC(=S)NN2CCOCC2)cc1 | ? | 9.4% | ? | 70.3%[activator] | 3.3% | 0.2% | 1.4% | ?
O=C(COC(=O)CN1C(=O)C2CCCCC2C1=O)NC1CCS(=O)(=O)C1 (configuration not stated) | 8.1% | -8.2% | -3.2% | -21.0% | -4.3% | 31.8% | 1.4% | 17.8%
COc1ccccc1C(=O)COC(=O)CNS(=O)(=O)c1ccc(NC(C)=O)cc1 | -0.7% | nt | -0.1% | 0.9% | 5.6% | 0.7% | nt | -3.0%
CCOc1ccc(NS(=O)(=O)c2ccc3[nH]cc(C(=O)NC4CCCC4)c(=O)c3c2)cc1 | -4.4%[46.1 µM] | -10.2% | -1.5%[46.1 µM] | 6.9% | nt | nt | -9.1% | nt

Full records from above. Order of values: Lassa entry inh, Cruzain noTriton, MARV entry inh, StopGo reporter, SARS PLP yeast, RE007 growth inh, Cruzain inh Det, NS1 function inh
COc1ccc(OC)c(NC(=O)CCCNC(=O)c2ccc(Cl)cc2)c1 is listed as nt, nt, nt, -16.3%, 0.1%, 2.2%, nt, -0.1%
Cn1c(=O)cc(Nc2ccc(Cl)cc2)[nH]c1=O is listed as -20.9%[46.1 µM], nt, -3.2%[46.1 µM], -14.3%, 1.7%, -2.3%, nt, 1.9%
Brc1ccc(-c2noc(COc3ccc4ccccc4c3)n2)o1 is listed as nt, -1.0%, nt, 1.1%, 7.1%, -7.3%, -1.5%, -2.0%

Other compounds follow.
SMILES | Lassa entry inh | Cruzain noTriton | MARV entry inh | StopGo reporter | SARS PLP yeast | RE007 growth inh | Cruzain inh Det | NS1 function inh
Cc1ccc(N(CC(=O)NCc2ccco2)C(=O)CCC(=O)Nc2nccs2)cc1 | -7.1% | nt | -1.0%[46.1 µM] | -16.0% | 1.8% | -10.9% | nt | ?
O=C(NCC(=O)N1CCCCCCC1)c1cccc([N+](=O)[O-])c1 | -8.7% | nt | 10.9% | 19.3% | nt | 17.4% | nt | nt
Cc1cc(C(F)F)n2nc(C(=O)NCc3ccccc3F)nc2n1 | 8.6% | 1.9% | 0.9%[46.1 µM] | -10.3% | -1.4% | 13.1% | -10.4% | 3.2%
CCCCNCCOCCOc1ccc(F)cc1 | -16.6% | -2.4% | -2.8% | 0.0% | 0.4% | -13.1% | 1.6% | -1.4%
Cc1ccc(SCC(=O)OC(C)C(=O)Nc2ccc(S(N)(=O)=O)cc2)cc1C (configuration not stated) | -13.3%[46.1 µM] | nt | ? | 0.1% | -25.7% | -6.0% | nt | nt
CC(=O)Cn1c(CN2CC(C)CC(C)C2)nc2c1c(=O)n(C)c(=O)n2C (configuration not stated) | -4.3% | -3.9% | 0.7% | -17.7% | -0.1% | -10.6% | -4.8% | 1.1%
COc1cccc(Nc2cc(C)nc3nc(-c4ccc(Cl)cc4)nn23)c1 | 10.3%[46.1 µM] | -9.7% | -0.2%[46.1 µM] | -9.3% | nt | nt | 0.8% | nt
Cc1cccc(NC(=O)c2ccc(S(=O)(=O)N3CCCCC3C)cc2)n1 (configuration not stated) | 0.7% | nt | 11.5% | -5.5% | nt | 0.2% | nt | nt
Cc1noc(C)c1S(=O)(=O)Nc1ccc(C(=O)NCc2ccccc2)cc1 | -6.0% | 2.0% | 5.0%&5.0% | -5.4% | 7.7% | -2.7% | 0.0% | -1.3%
COc1cccc(-c2cc(C(F)(F)F)n3nc(-c4ccc(C)cc4)cc3n2)c1 | 1.1%[46.1 µM] | -18.9% | 27.6%[46.1 µM] | -2.2% | nt | nt | 1.9% | nt
CC(=O)NS(=O)(=O)c1cccnc1Nc1ccc(Cl)c(Cl)c1 | 12.6% | 1.3% | 22.3% | 7.9% | 15.3% | 24.8% | -8.3% | -1.9%
Cc1ccc(-c2nn(C)c(=O)c3ccccc23)cc1S(=O)(=O)NCCO | -18.3% | -6.1% | 10.5% | 24.5% | -5.3% | 14.2% | 2.6% | 4.6%
Cc1ccccc1NC(=O)CCn1cnc2onc(-c3ccc(F)cc3)c2c1=O | ? | ? | nt | -11.0% | nt | nt | -1.9% | nt
N#Cc1ccc(C(=O)Nc2nc(SCc3ccc(Cl)cc3)n[nH]2)cc1 | -4.0%[46.1 µM] | nt | -10.3%[46.1 µM] | 1.9% | 0.7% | 2.3% | nt | 14.8%
COC(=O)Cn1ncc2c3ccccc3n(Cc3ccccc3)c2c1=O | 5.6% | 9.0% | 29.2% | -21.7% | 1.2% | -1.0% | -7.3% | -4.5%
CN(C)CCNc1nc(-c2ccccc2)c2c(c1C#N)CC(C)(C)OC2 | ? | 12.1% | ? | -2.1% | -0.8% | -10.4% | 3.6% | -7.8%
CCSc1ncc(Cl)c(C(=O)Nc2c(C(=O)c3ccccc3)oc3ccccc23)n1 | 1.7%[46.1 µM] | -3.1% | -0.4%[46.1 µM] | -1.8% | nt | nt | -1.3% | nt
Cc1cccc(OCC(=O)N2CCN(C(=O)CCC3CCCC3)CC2)c1 | -12.5% | 21.1% | ? | -31.5% | 3.3% | -5.6% | -1.0% | -45.4%
CCC1(c2ccccc2)NC(=O)N(CC(=O)NNC(=O)COc2ccc(Cl)cc2C)C1=O (configuration not stated) | -15.6% | nt | 13.0% | -18.6% | -1.7% | ? | nt | nt
COC(=O)C1C(=O)C2=C(CC1C)NC(C)=C(C(=O)OC1CCCC1)C2c1ccc(N(C)C)cc1 (configuration not stated) | -6.9% | ? | -2.5%&-2.5% | 40.9% | 0.1% | 11.1% | -0.3% | -45.3%
COc1ccccc1-c1cnn2c(NC3CCCC3)cc(C)nc12 | -0.6%[46.1 µM] | nt | ? | 23.9% | -3.1% | -14.2% | nt | -11.3%
CCn1c(=O)cc(SCC(=O)NCc2cccc(Cl)c2)c2ccccc21 | -22.8%[46.1 µM] | 8.7% | ? | -12.4% | nt | nt | -3.0% | nt
O/N=C/c1cc2ccccc2n1Cc1ccccc1F | nt | nt | nt | -18.7% | -6.4% | 5.6% | nt | 5.1%
